Screens (PubChem)
KCNQ2 block – KCNQ2 channel blockers in CHO-K1 cells – cell-based, FluxOR thallium flux, B-score, primary screen (AID 2156). 20 min; hits give low values; only compounds with negative scores are shown here; some inactives read as strong as hits. B-score at 10 µM. hit rate 1.1% among 310,000;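 active = fluorescence ratio B-score at most minus 3 library SDs, with starting brightness B-score within 2 library SDs, cut at about -5.5 in these data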
Target sequence (O88943 whole entry, looked up): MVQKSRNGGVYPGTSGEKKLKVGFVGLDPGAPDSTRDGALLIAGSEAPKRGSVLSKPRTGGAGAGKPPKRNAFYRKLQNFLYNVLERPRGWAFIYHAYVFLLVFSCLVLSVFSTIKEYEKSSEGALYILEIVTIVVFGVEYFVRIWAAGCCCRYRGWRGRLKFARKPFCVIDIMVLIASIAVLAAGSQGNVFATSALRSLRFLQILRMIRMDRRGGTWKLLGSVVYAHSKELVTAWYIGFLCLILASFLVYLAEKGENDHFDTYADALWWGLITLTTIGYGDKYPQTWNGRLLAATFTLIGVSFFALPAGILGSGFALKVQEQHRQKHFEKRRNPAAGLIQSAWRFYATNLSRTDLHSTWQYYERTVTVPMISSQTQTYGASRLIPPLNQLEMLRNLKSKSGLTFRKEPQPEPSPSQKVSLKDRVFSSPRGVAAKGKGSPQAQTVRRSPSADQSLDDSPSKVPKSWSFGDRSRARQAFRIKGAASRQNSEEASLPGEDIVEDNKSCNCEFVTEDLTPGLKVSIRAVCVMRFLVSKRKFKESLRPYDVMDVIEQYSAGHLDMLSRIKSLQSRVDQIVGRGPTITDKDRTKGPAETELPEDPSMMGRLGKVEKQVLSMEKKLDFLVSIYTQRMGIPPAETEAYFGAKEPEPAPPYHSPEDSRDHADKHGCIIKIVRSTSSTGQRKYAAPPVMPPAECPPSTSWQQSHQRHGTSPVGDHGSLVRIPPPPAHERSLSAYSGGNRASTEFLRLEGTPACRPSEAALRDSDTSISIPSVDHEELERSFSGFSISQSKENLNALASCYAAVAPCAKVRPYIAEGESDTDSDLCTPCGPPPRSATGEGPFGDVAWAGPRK
KCNQ2 block baseline – also measured in KCNQ2 block; calls as there; B-score; measured here: initial fluorescence intensity artifact check;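 brightness before thallium and not channel activity; 0 = typical well and far values either way flag optical interference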
Active calls of the source: *; i = inactive. Not all compounds are listed; the hit share may differ from the screen's.

smiles,KCNQ2 block,KCNQ2 block baseline
CC1(C)C2CCC1(C)C(NC1=NCCC1)C2 (stereo not given),i,-0.84
c1ccc(Cn2c(CNc3nc4ccccc4n3CCN3CCOCC3)nc3ccccc32)cc1,-6*,-0.46*
O=C(COc1ccc(Cl)cc1)NC1CCSC1=O (stereo not given),i,-0.12
COc1ccc(NC(=O)CN2CCN(CC#N)CC2)cc1,i,-0.69
Cc1ccc(SCC(=O)Nc2ccc(S(N)(=O)=O)cc2)cc1,i,0.29
O=C(O)[C@@H](O)c1ccccc1,i,1.3
COCc1ccc(C(=O)N2CCC(CCC(=O)Nc3cccc(C)c3)CC2)s1,i,-0.02
Cc1cc(C)nc(NC=C2C(=O)OC(C)(C)OC2=O)n1,i,-0.08
Cc1ccc2c(c1)c1c(n2CC(O)CN2C(=O)CNC2=O)C(=O)CCC1 (stereo not given),i,-0.55
CN1CCN(c2ccccc2NC(=O)c2ccc(-c3ccccc3[N+](=O)[O-])o2)CC1,i,0.31
Cc1cc(C)c2nc(NCCCNC(=S)NCCCN(C)C)c(C#N)cc2c1,-7.3*,0.73*
Cc1cc(N2CCN(Cc3ccc4c(c3)OCO4)CC2)n2ncnc2n1,i,0.87
COc1cccc(NC(=O)COC(=O)c2ccccc2C(=O)N2CCN(c3ccccc3)CC2)c1,i,1.3
COC(=O)Cn1ncc2c(C)n(Cc3ccccc3)c(C)c2c1=O,i,-2.2
COc1ccc(CNC(=O)c2ccc(CS(=O)(=O)c3ccccc3C)o2)cc1,i,0.25
O=C(O)CC1(CC(=O)Nc2ccc3c(c2)C(=O)OC3)CCCCC1,i,-1.5
O=S(=O)(NCc1cn2ccsc2n1)c1ccc(Oc2ccccc2)cc1,i,0.06
Cc1nc(CN2CCN(C(=O)c3ccc(Br)cc3)CC2)cs1,i,-1.6
O=C(COC(=O)/C=C/c1ccc(F)cc1)Nc1ccc(Cl)cn1,i,-1.9
O=C(NC1CCNCC1)C1CC1,i,1.1
Cc1ccc2c(c1)-c1c(cnn1CC(=O)O)CO2,i,0.02
CSc1ccc(/C=C(/NC(=O)c2ccccc2)C(=O)N2CCN(C)CC2)cc1,i,0.18
Cc1c(C(=O)Nc2c(C)n(C)n(-c3ccccc3)c2=O)oc2ccccc12,i,0.77
Cc1ccc(COc2ccsc2C(=O)NN)cc1,i,0.02
Fc1ccc(C(c2nnnn2Cc2cccs2)N2CCN(C3CCCCC3)CC2)cc1 (stereo not given),i,-1.9
Cc1ccsc1C(C(=O)NC1CCCCC1)N(C(=O)Cc1cccs1)C1CC1 (stereo not given),i,-2
O=C1Nc2ccc(S(=O)(=O)NCC3CCCO3)c3cccc1c23 (stereo not given),i,0.64
CCOc1cc(C2C(C(=O)N3CCCCC3)=C(C)NC3=C2C(=O)CCC3)cc(Br)c1O (stereo not given),i,1.4
Cc1cc(C(F)(F)F)nn1-c1nc(-c2ccco2)cc(C(F)(F)F)n1,i,0.34
COc1ccc(N(CC(=O)N/N=C(\C)c2cccs2)S(=O)(=O)c2ccccc2)cc1Cl,i,2.4
CSc1ccccc1NC(=O)COC(=O)c1ccccc1O,i,0.43
Cc1cn(-c2ccc(Br)cc2)[nH]c1=O,i,0.92
Cc1ccc(OCC(=O)NS(=O)(=O)c2ccc(Cl)cc2)cc1,i,0.5
NC(=O)c1ccc(NC(=O)c2ccccc2S(=O)(=O)c2ccccc2[N+](=O)[O-])cc1,i,-0.71
O=C(NNc1ccccc1)C(=O)NNS(=O)(=O)c1ccc([N+](=O)[O-])cc1,i,0.97
COC(=O)[C@H](CCSC)NC(=O)NCCc1ccc(F)cc1,i,0.6
O=C(COc1ccc(/C=N/NC(=O)C(=O)N2CCCCC2)cc1)Nc1ccccc1Cl,i,-1.2
COc1ccc(/C(N)=N/OC(=O)C2CCCCC2)cc1OC,i,1.8
CCn1nnnc1SCC(=O)c1ccc2c(c1)OCCO2,i,-1.4
CCN1C(=O)C2CCCCN2c2ccc(C(=O)NCCOC)cc21 (stereo not given),i,-1.4
Cc1ccc(NC(=O)CN(C)S(=O)(=O)c2ccc(Br)s2)cc1F,i,-0.66
CCn1cc2nc(SCC(=O)Nc3ccc(OC)cc3OC)n(Cc3ccc(OC)cc3)c(=O)c2n1,i,-0.98
CNC(=O)c1c(NC(=O)CS(=O)(=O)c2ccc(F)cc2)sc(C)c1C,i,2.2
O=C(NCCc1csc(-c2cccnc2)n1)c1c(F)cccc1F,i,0.52
COc1ccc(OC)c(NC(=O)CN(c2ccc(OC)c(Cl)c2)S(C)(=O)=O)c1,i,1.4
Cc1cc2cc3c(cc2nc1SCC(=O)N1c2ccccc2CC1C)OCO3 (stereo not given),i,2.3
CCOc1ccccc1NC(=O)c1ccc(F)c(S(=O)(=O)N2CCC3(CC2)OCCO3)c1,i,1.2
COc1ccc(O/C(=N\S(=O)(=O)c2ccccc2)c2ccccc2)cc1,i,-0.05
COCc1cc(C)nc(OC)c1C(N)=O,i,-1.2
CCN(C(=O)CN1CCN(c2ccc(O)cc2)CC1)c1c(N)n(Cc2ccccc2)c(=O)[nH]c1=O,i,-1.9
N#C/C(=C(/O)CCl)c1nnc2n1CCCCC2,i,-1.4
Cc1ccc(C)c(NC(=O)CCC(=O)N/N=C/c2cc([N+](=O)[O-])ccc2O)c1,i,-0.03
O=C(/C=N/O)NCCCn1ccnc1,i,-0.05
Cc1cc(C)cc(NC(=O)CCC(=O)N2CCSc3ccccc32)c1,i,0.4
Cc1ccc2nc(-c3ccc(N4C(=O)CC(N5CCN(CCO)CC5)C4=O)cc3)sc2c1 (stereo not given),-6.3*,-0.03*
CO/N=C(/CS(=O)c1ccc(Br)cc1)c1ccc(OC)cc1 (stereo not given),i,2.2

(next part)
smiles,KCNQ2 block,KCNQ2 block baseline
CCCCn1c2c(c(=N)c3ccccc31)CCC2,i,-0.51
Cc1ccc(S(=O)(=O)N2CCC(=O)N(C(COCc3ccccc3)C(C)C)CC2)cc1 (stereo not given),i,-0.23
O=C(Nc1nnc(-c2ccncc2)o1)C1CCCCC1,i,0.5
COC(=O)Cc1cc(=O)n(-c2nc3ccccc3[nH]2)[nH]1,i,0.9
Cc1cc(Cl)ccc1NNC(=O)c1c(C)noc1C,i,0.3
COc1ccccc1N1CCN(CC(=O)c2c(C)n(C)c3ccccc23)CC1,i,0.92
Cc1cnc(NC(=O)COc2ccccc2Cl)s1,i,-0.11
O=C(NC1(C(F)(F)F)C(=O)Nc2c1c(=O)[nH]c(=O)n2Cc1ccccc1)c1ccc(Cl)cc1 (stereo not given),i,-0.22
CCCOc1ccc(N2C(=O)CC(N(Cc3ccco3)C(C)=O)C2=O)cc1 (stereo not given),i,0.33
O=C(CCS(=O)(=O)c1ccccc1)Nc1ncc([N+](=O)[O-])s1,i,0.16
COc1ccc(NC(=O)Nc2sc(=S)n(C)c2C)cc1,i,0.61
O=C(O)C1CC=CCC1C(=O)Nc1ccc(F)c(F)c1 (stereo not given),i,-0.37
Cn1c(=O)c2cc3ccccc3nc2n(C)c1=O,i,-0.23
Cc1cc(C(F)(F)F)nc(SCc2ccc(C(=O)O)o2)n1,i,2.6
COc1ccc(NS(=O)(=O)c2ccc3oc(=S)[nH]c3c2)cc1,i,2.5
Cc1ccc(-n2c(C)cc3c2CCCC3=O)cc1,i,-0.32
CCCNC(=O)C12CCC(C)(c3nc4cc(C)c(C)cc4nc31)C2(C)C (stereo not given),i,-1.7
CC1CCN(C(=O)COC(=O)Cc2ccc(Br)cc2)CC1,i,-0.32
O=C(c1ccccc1)N1CCCCC(Cl)C1=O (stereo not given),i,3.2
CCC1NC(=S)N(C2CCCCC2)C1=O (stereo not given),i,0.07
CCCn1nnc(NC(=O)/C=C/c2ccc(C(C)C)cc2)n1,i,0.23
COc1ccccc1NC(=O)C1=C(C)Nc2nc(-c3ccccc3)nn2C1c1ccccn1 (stereo not given),i,0.99
O=C(c1ccc2snnc2c1)N1CCCC1,i,-1.3
CC(C)Cn1c(CNC(=O)c2ccccc2)nc2ccccc21,i,1.9
O=C(CN1C(=O)CCS(=O)(=O)c2ccccc21)Nc1ccc(Cl)cc1,i,-0.03
Cc1nc([N+](=O)[O-])cn1CC(=O)c1ccc(Br)cc1,i,-0.6
O=C(c1cc(S(=O)(=O)N2CCOCC2)ccc1F)N(Cc1nnc(-c2ccccc2Cl)o1)C1CC1,i,0.11
N#C/C(=C(/O)c1cccs1)c1nc2ccccc2[nH]1,i,-0.83
CC(=O)NC1(C(F)(F)F)N=C2SCCN2C1=O (stereo not given),i,1.1
CN1CCN(C(=O)c2ccc3c(c2)N(Cc2ccc(F)cc2)C(=O)c2ccccc2S3=O)CC1 (stereo not given),i,-0.03
O=C(NCC1CCCO1)c1cc2c(s1)CS(=O)(=O)C2 (stereo not given),i,0.25
CC(=O)c1cc(-c2ccccc2)n(CC(=O)NC2CCCCC2)c1C,i,0.32
O=C(c1ccc([N+](=O)[O-])cc1)N1CCOC12CCN(c1ncc(C(F)(F)F)cc1Cl)CC2,i,-1.6
CCCNC(=O)COC(=O)c1ccc(S(=O)(=O)N2CCCC2)cc1,i,0.11
COC(=O)CSc1nc(NCc2ccccc2)nc(N(C)C)n1,i,0.05
O=C(O)c1cc(C(=O)C2CC2)c[nH]1,i,0.01
COC(=O)C1CCN(Cc2cn(Cc3ccccc3)nc2-c2cc3ccccc3o2)CC1,i,0.84
Cc1cccc(N(CC(=O)NCCc2ccccc2)C(=O)CCC(=O)Nc2ccccn2)c1C,i,-0.59
COc1cccc(C(c2sc3ncnn3c2O)N2CCN(C(=O)c3ccco3)CC2)c1 (stereo not given),i,2.8
O=C(Nc1cc(Sc2nc3ccccc3s2)cc([N+](=O)[O-])c1)c1ccccc1F,-6*,2.2*
CC(=O)c1ccc(OCc2cc(C(=O)N3CCOCC3)no2)cc1,i,0.87
COc1ccc(NS(=O)(=O)c2cc(-c3cnc(C4CC4)o3)ccc2C)cc1,i,0.28
Cc1ccc(-c2csc3nc(C)n(N)c(=O)c23)o1,i,-0.78
COc1ccc(CNC(=O)CN(C(=O)CCC(=O)Nc2ccccn2)c2cccc(C)c2C)cc1,i,-1.6
COC(=O)c1c(C)oc(C)c1S(=O)(=O)NC(C)(C)C,i,-0.51
OCCCc1ccc(O)c(O)c1,i,-0.23
CC(C)c1ccc(NC(=O)Cc2cn(C)c3ccccc23)cc1,i,2.7
CC(=O)Nc1ccccc1Oc1ccccc1,i,-0.11
O=C(CN1CCOCC1)Nc1nc2ccc(F)cc2s1,i,0.11
COc1ccc(-c2noc(CN3CCC(Cc4ccccc4)CC3)n2)cc1,i,2.2
CCc1nnc(NC(=O)CSc2nc(N)c(NC(=O)c3ccc(OC)cc3)c(=O)[nH]2)s1,i,-0.18
CCCCOc1ccc(C(=O)NCC(=O)N2CCN(Cc3ccc4c(c3)OCO4)CC2)cc1,i,-0.58
CCCCOc1ccccc1C(=O)NNC(=S)NC(=O)c1ccccc1[N+](=O)[O-],i,0.95
CCCc1c(O)nc(SCCN(CC)CC)[nH]c1=O,i,-0.92
CC(C)C(c1nnnn1C1CCCC1)N1CCCc2ccccc21 (stereo not given),i,0.3
CN1CCN(/N=C/c2ccc(N(c3ccccc3)c3ccccc3)cc2)CC1,i,1.2

Quoted from above (seven entries):
smiles,KCNQ2 block,KCNQ2 block baseline
CC1(C)C2CCC1(C)C(NC1=NCCC1)C2 (stereo not given),i,-0.84
c1ccc(Cn2c(CNc3nc4ccccc4n3CCN3CCOCC3)nc3ccccc32)cc1,-6*,-0.46*
O=C(COc1ccc(Cl)cc1)NC1CCSC1=O (stereo not given),i,-0.12
COc1ccc(NC(=O)CN2CCN(CC#N)CC2)cc1,i,-0.69
Cc1ccc(SCC(=O)Nc2ccc(S(N)(=O)=O)cc2)cc1,i,0.29
O=C(O)[C@@H](O)c1ccccc1,i,1.3
COCc1ccc(C(=O)N2CCC(CCC(=O)Nc3cccc(C)c3)CC2)s1,i,-0.02

Next section
smiles,KCNQ2 block,KCNQ2 block baseline
Cc1ccc(C)c(C(=O)COc2ccccc2[N+](=O)[O-])c1,i,1.4
CC(C)(C)c1cc(Br)ccc1OCC(=O)Nc1ncn[nH]1,i,-0.82
CC(=O)N1CCC(N(C(=O)Nc2ccc(F)cc2)C2CCCC2)CC1,i,0.02
O=C(Nc1nc(N2C(=O)c3ccccc3C2=O)n(-c2ccccc2)n1)c1ccc(F)cc1,i,0.79
CCn1c(CNC(=O)Cc2ccc(OC)cc2)nnc1SCC(=O)c1ccc(Br)cc1,i,-1.7
CC(C)C[C@@]12C(=O)N(c3ccc(Br)cc3)C(=O)N1[C@H](c1ccc(Br)cc1)[C@@H]1C(=O)N(C(C)(C)C)C(=O)[C@@H]12,i,-0.16
CCCc1nc2c(sc3nc4c(cc32)COC(C)(C)C4)c(=O)n1CCN(C)C,i,-0.59
CCO[C@H]1OC(C(=O)Nc2ccccc2)=C[C@@H](c2cn(C(C)=O)c3ccccc23)[C@@H]1CCCO,i,1.1
COc1cccc(CCN2CCC(CNS(=O)(=O)c3cc(-c4cc(C)no4)ccc3OC)CC2)c1,i,0.82
